HPGD inh = blocks human HPGD enzyme activity; Potency, µM, without a hit: at the top dose activity change, negative = inhibition, usual class: inhibitors; actives 4.3% (n = 150,000); purified HPGD, NADH fluorescence kinetic, PGE2 substrate; P15428; AID 894; active = well fitted inhibition curve with a large enough effect (not every such curve was filed as active); inconclusive = small, poorly fitted or top-dose-only effect, or another doubt; inactive = no such curve, though single readings can be large or run the other way;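 also: top concentration of the series not given in the record; plate controls included wells without enzyme; inactives centre near -10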
Target sequence (P15428 whole entry, looked up): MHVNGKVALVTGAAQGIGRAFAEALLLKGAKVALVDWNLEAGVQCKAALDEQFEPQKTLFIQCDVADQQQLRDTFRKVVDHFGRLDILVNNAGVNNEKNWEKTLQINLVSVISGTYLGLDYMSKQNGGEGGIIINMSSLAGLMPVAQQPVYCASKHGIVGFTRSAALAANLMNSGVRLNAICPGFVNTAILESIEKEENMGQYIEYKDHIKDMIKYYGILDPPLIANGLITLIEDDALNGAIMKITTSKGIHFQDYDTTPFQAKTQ
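NADH formation kinetics: reaction with 30 uM PGE2 and 1 mM NAD+ (final), 20 nM enzyme, Tris-HCl pH 8 with Tween 20, after 15 min compound preincubation at room temperature. Fluorescence change, last versus first of five reads.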
The depositor's hits bear a star; u = inconclusive; & = joins results of further samples; [ ] = remark or other dose. % is scaled to controls: 0 for no effect and ±100 for the full control effect; potency is read from the fitted curve at half-maximal effect. An excerpt; the hit share may differ from the screen's.

SMILES	HPGD inh
Cc1ccc(-n2nnnc2SCC(=O)c2cc(C)n(-c3cc(C)on3)c2C)cc1	-10.3%
CC(C)CNc1nc(Oc2ccc(=O)n(C)n2)nc(N2CCOCC2)n1	-2.1%
CCOC(=O)c1c(C(C)(C)C)oc2ccc(O)cc12	u
CCCN1C(=O)/C(=C/c2ccc(C)s2)SC1=Nc1ccc(OC)cc1	-1.3%
COC(=O)CN1C(=O)CSc2ncccc21	0.7%
COc1cc(C(=S)N2CCCC2)ccc1O	28.2µM*
Cc1ccc(-c2nnn(CC(=O)N(CC(=O)NC3CCCC3)c3ccc(F)c(Cl)c3)n2)o1	3.6%
COc1ccccc1-c1cc(N)n(S(=O)(=O)c2ccc(F)c(C)c2)n1	-5.0%
Cc1[nH][nH]c(=O)c1N=Nc1ccccc1	-5.7%
CCOC(=O)N1CCN(S(=O)(=O)c2ccc(OCC)c(C)c2)CC1	-9.5%
O=C(Nc1ccc(Cl)cc1)OCc1cn(-c2ccc(Cl)cc2)nn1	0.8%
Cc1ccnc(NS(=O)(=O)c2ccc(NC(=O)Cc3ccccc3)cc2)n1	-7.8%
CN(C)c1ccc(CNc2ccc3c(c2)ncn3C)cc1	-27.1%
COc1ccccc1/C=N/n1cnnc1	u
Cc1ccc(C(=O)Oc2coc(CSc3nnc(NC(=O)c4cccs4)s3)cc2=O)cc1	-13.5%
O=S(=O)(c1ccccc1)c1nc(-c2ccco2)oc1NCc1ccccc1	-6.9%
Cc1ccccc1Oc1cccc(C(=O)/C(C#N)=C/N(C)C)c1	u
CC1=C(C(=O)OCc2ccccc2)C(C2CCCCC2)NC(=O)N1CCCCCC(=O)O (configuration not stated)	-3.8%
O=c1oc2ccccc2c2c1SC(C(F)(F)F)C2 (configuration not stated)	u
COc1ccc(S(=O)(=O)N(Cc2cc3cc(C)ccc3[nH]c2=O)CC2CCCO2)cc1 (configuration not stated)	49.9%[activator]
Cc1ccc(Cn2nnc3c(=O)[nH]c(C(=O)NCc4ccco4)nc32)cc1	-25.4%
O=S(=O)(c1ccccc1)N(Cc1nc(-c2ccccc2)no1)C1CCCCC1	-11.4%
CCN(CC)CCNc1ncnc2c1[nH]c1ccc(OC)cc12	-2.5%
Cc1ccc(/C=C2\Oc3cc(OC(=O)N4CCOCC4)ccc3C2=O)cc1	-11.4%
CC(=O)Nc1cccc(OC(=O)N2CCOCC2)c1	-6.7%
COc1ccc(C2CC(c3ccccc3)=NN2S(=O)(=O)c2ccc(C)cc2)c(OC)c1 (configuration not stated)	-13.8%
c1ccc(CSCc2ccccc2)cc1	-18.9%
Cc1ccc(S(=O)(=O)C(C#N)c2nc3ccccc3nc2N2CCN(C)CC2)cc1 (configuration not stated)	-2.2%
Cc1ccc2nsnc2c1S(=O)(=O)N(Cc1ccco1)Cc1cc2ccc(C)c(C)c2[nH]c1=O	-15.1%
CC(C)(C)C1=CC(=Nc2ccccc2N)C=C(C(C)(C)C)C1=O	2.0%
COc1ccc(Cl)cc1NC(=O)CCN1CCN(C)CC1	1.3%
Cc1cccc(C(=O)NNC(=O)c2cccc(C)c2)c1	-0.6%
CC1(C(=O)NCCCNc2ncc(C(F)(F)F)cc2Cl)C=CC2(CCCCC2)N1C(=O)c1ccccc1 (configuration not stated)	-26.5%
CCC(=O)N1CC23C=CC(CC2CC12CCCCC2)O3 (configuration not stated)	-3.7%
CCC(C)(C)NC(=O)c1ccc(S(=O)(=O)N(C)c2ccccc2OC)cc1	-3.9%
CC(C)c1nc2oc3c(=O)[nH]cnc3c2c2c1CCC2	u
Nc1c(C(=O)NCCN2CCOCC2)c2nc3ccccc3nc2n1CCc1ccccc1	u
CCOC(=O)c1cnc2ccc(C)cc2c1NCCO	-3.9%
Cc1ccc([N+](=O)[O-])c(OCC(=O)OCC(=O)c2ccccc2)c1	-1.9%
O=c1cc(-c2ccccc2)[nH]n1-c1ccc([N+](=O)[O-])cc1	-13.0%
Cn1c(SCc2nnc(-c3ccccc3Br)o2)nc2sc3c(c2c1=O)CCC3	8.91µM*
CC1=C(C(=O)OCCOC(C)C)C(c2cc3c(cc2Br)OCO3)CC(=O)N1 (configuration not stated)	-1.5%
COC(=O)c1[nH]c2ccc(Cl)cc2c1NC(=O)C1CC1	u
CSc1nncc(/C(C)=N/O)n1	-8.2%
O=C(Nc1ccc(S(=O)(=O)Nc2nccs2)cc1)c1ccc(S(=O)(=O)N2CCOCC2)cc1	2.2%
N=c1ccn(CC(=O)NC(N)=O)c2ccccc12	-13.4%
Cc1cccc(Cn2cccc2/C=C2/C(=N)N3C=CSC3=NC2=O)c1	-9.0%
Cc1cccc(CCNC(=O)CCNC(=O)Cn2ccc3ccccc3c2=O)c1	-9.6%
O=C(CC1C(=O)OCN1C(=O)OCc1ccccc1)OCC(=O)c1ccccc1 (configuration not stated)	-10.8%
Cc1ccc(NC(=O)Cn2cnc3sc(C(=O)NCc4ccco4)c(C)c3c2=O)cc1Cl	-9.4%
COCc1c(C(=O)N2CCN(c3ccc(C(F)(F)F)cn3)CC2)oc2ccccc12	-9.4%
CCCCNC(=O)Nc1ccc(Br)cn1	-2.7%
Cc1ccc(C)c(NC(=S)N=Nc2c(O)n(C)c3ccc(S(=O)(=O)N4CCOCC4)cc23)c1	-5.3%
CC(C)=CCl	-2.2%
CN(CCCNC(=O)c1cccn2c(=O)c3ccccc3nc12)Cc1ccccc1	-4.2%
COC(=O)Cc1c(C)nc2nc(NCc3ccc(Cl)cc3)[nH]n2c1=O	-1.7%
CN1CCN(CC(=O)Nc2ccc(Oc3ccccc3)cc2)CC1	-15.7%
O=C1N[C@@H](Cc2cnc[nH]2)C(=O)N2CCC[C@@H]12	-1.5%
O=C(NCc1ccco1)c1ccc2c(=O)n(-c3ccccc3)c(=O)n(Cc3cccc(F)c3)c2c1	-7.2%
COc1ccc(CCn2nnnc2C(CC(C)C)N2CCC(C(N)=O)CC2)cc1OC (configuration not stated)	8.0%

Continuation:
SMILES	HPGD inh
CC(=O)O[C@H]1C(=O)[C@@]2(C)[C@H]([C@H](OC(=O)c3ccccc3)[C@]3(O)C[C@H](OC(=O)[C@H](O)[C@@H](NC(=O)c4ccccc4)c4ccccc4)C(C)=C1C3(C)C)[C@]1(OC(C)=O)CO[C@@H]1C[C@@H]2O	-2.4%
CNCC(=O)Nc1c(C)n[nH]c1C	-3.3%
NC(=O)C[C@H](N)C(N)=O	-14.3%
Cn1cnnc1SCC(=O)c1ccc2c(c1)CCCC2	-12.8%
CC1(C(=O)CSc2nc3ccccc3[nH]2)CCC(=O)O1 (configuration not stated)	-9.8%
CN(Cc1cccs1)C(=O)COc1ccc(-c2nnco2)cc1	-1.4%
c1ccc(CNc2ncnc3nc[nH]c23)cc1	-5.0%&-7.6%
O=C(O)CCc1ccc(-c2cccs2)n1NC(=O)c1ccc(O)cc1	-12.6%
O=C(CCCN1CCN(c2ccccn2)CC1)c1ccc(F)cc1	-15.1%&-1.6%
Cc1c2c(nc3ccccc13)OCC2	-9.0%&-3.8%
O=C(Cc1cc(=O)[nH][nH]1)N/N=C/c1ccccc1Cl	-21.1%
N#CC(c1cccc(Cl)c1)c1ncc(C(F)(F)F)cc1Cl (configuration not stated)	-16.9%
CC(C)CNC(=O)C(=O)Nc1ccc(N(C)C)cc1	-9.5%
CCCc1ccc(-c2c(C)sc(N)c2C#N)cc1	-25.8%
Cc1cc(C#N)c(C)n1-c1cc(S(=O)(=O)N2CCOCC2)ccc1N1CCCC1	7.94µM*
COC(=O)NCCOc1nc(N(C)C)nc(N(C)C)n1	-10.8%
O=C(NCCCN1CCOCC1)c1ccc(Sc2cccc(Cl)c2)c([N+](=O)[O-])c1	-6.8%
Cc1cc(/C=N/NC(=O)c2cccs2)c(C)n1-c1ccccc1	-8.0%
CC(=O)Nc1ccc(S(=O)(=O)NCC(=O)OCC(=O)NC23CC4CC(CC(C4)C2)C3)cc1	-12.4%
CN1CCc2cccc3c2[C@H]1Cc1ccc(O)c(O)c1-3	u
Cc1occc1C(=O)Nc1cccc(C(=O)O)c1	4.2%
CCCCCCN(C(=O)CCCCCN1C(=O)NC(c2ccc(-c3ccccc3)cc2)C(C(=O)OCc2ccccc2)=C1C)C(C(=O)NCCCC)c1ccc(OCC(=O)O)c(C(=O)O)c1 (configuration not stated)	-10.3%
CN(C)CCNC(=O)/C(=C/c1ccc(-c2ccc(Cl)cc2Cl)o1)NC(=O)c1ccccc1	-13.6%
COc1cccc(-c2cc(C(=O)N3CCCc4ccccc43)no2)c1	-9.7%
Cn1c(SCCCC(=O)c2ccc(F)cc2)nnc1-c1ccncc1	-26.0%
COc1ccccc1CNC(=O)C1CC(c2cccc([N+](=O)[O-])c2)=NO1 (configuration not stated)	-4.8%
CCOC(=O)c1c(NC(=O)CSc2nnc(CNC(=O)c3ccco3)n2C)sc2c1CCC2	-8.2%
Cc1ccc(-c2csc(N3CCC(C(N)=O)(N4CCCCC4)CC3)n2)cc1	-9.1%
CCn1cc(C(=O)N2CCN(C3CCCCC3)CC2)c2cc(OC)c(OC)cc2c1=O	-3.5%
COC(=O)c1[nH]c2cc(OC)ccc2c1NC(=O)CCN1CCSCC1	-11.9%

3 of the entries above in order of their number in HPGD inh, lowest first.
SMILES	HPGD inh
Cc1cc(C#N)c(C)n1-c1cc(S(=O)(=O)N2CCOCC2)ccc1N1CCCC1	7.94µM*
Cn1c(SCc2nnc(-c3ccccc3Br)o2)nc2sc3c(c2c1=O)CCC3	8.91µM*
COc1cc(C(=S)N2CCCC2)ccc1O	28.2µM*

(further entries)
SMILES	HPGD inh
CCn1c(COc2ccccc2)nnc1SCC(=O)CC(=O)Nc1ccccc1OC	-10.1%
COc1ccccc1-c1cc(C(F)(F)F)nc(S(=O)(=O)CCCC(=O)Nc2cc(C)on2)n1	u
[O-]/[N+](=C\c1ccncc1)c1ccccc1	-11.7%
COc1ccc(S(=O)(=O)N2CCN(S(=O)(=O)c3ccc4c(c3)OCCO4)CC2)cc1	0.0%
Cn1cccc1P(=O)(c1cccn1C)c1cccn1C	-14.9%
COc1ccc(Cn2c(SC)nc3ccccc32)cc1[N+](=O)[O-]	-6.4%
Cc1cc(C)n(-c2nc(NC(C)(C)C)nc(NC(C)(C)C)n2)n1	-8.2%
Cc1cc(C)cc(-n2nnnc2SCC(=O)N2CCOCC2)c1	-7.9%
COc1ccc(/C=N\NC(=O)COc2ccc(Cl)cc2Cl)c(C(=O)O)c1OC	-6.2%
Cn1c(=O)c2c(nc(N3CCCCCC3)n2Cc2cccc3ccccc23)n(C)c1=O	-26.3%
COc1ccccc1N1CCN(C(=O)c2ccc(S(=O)(=O)N3CCCC3)cc2)CC1	-2.9%
COc1cccc(Nc2ncc3nc(CCc4ccccc4)c(=O)n(C4CC4)c3n2)c1	-5.2%
C=CCN(C(=O)COc1ccccc1)c1nnc(-c2ccncc2)s1	-2.5%
O=C(O)c1ccccc1NC(=O)C1CCCO1 (configuration not stated)	-4.9%
COc1cccc(C2C3CN(C)CC=C3C(C#N)=C(N)C2(C#N)C#N)c1OC (configuration not stated)	u
COc1ccccc1NC(=O)c1cc(Cl)ccc1NC(=O)c1ccco1	u
CCn1nnnc1SCC(=O)Nc1cccc(C)n1	-9.0%
CCOC(=O)CSc1nc(C)c2ccccc2n1	-12.1%
COC(=O)c1ccc(CS(=O)(=O)c2ccccc2C)o1	-13.3%
CCOC(=O)CNC(=O)C(NC(=O)C1CCC(C)CC1)C(C)CC (configuration not stated)	3.6%
Cn1c(=O)c2c(nc(N3CCOCC3)n2CC(=O)c2ccccc2)n(C)c1=O	-13.6%
Cc1nn(-c2ccccc2)c(Cl)c1/C=N/NC(=O)c1cccc(S(=O)(=O)N2CCCC2)c1	-28.5%
O=c1oc2ccccc2cc1-c1nnc(-c2cccc(Br)c2)o1	-13.7%
CCCCN1CC(C(=O)NC2CCCCC2)CC1=O (configuration not stated)	-8.0%
Cc1nn(C)c(Oc2cccc(Cl)c2)c1C(=O)O	-7.1%
COc1ccc(S(=O)(=O)N(C)CC(=O)NC2CCCCC2)cc1OC	-5.4%
O=C(CC1SC(=Nc2cccc3ccccc23)N(Cc2ccccn2)C1=O)Nc1ccccc1Br (configuration not stated)	-20.5%
COc1ccc(C2COC(=O)C2=N)c(NC(=O)c2ccccc2)c1 (configuration not stated)	-8.0%
COc1ccc(OC)c(NC(=O)CSc2nnc(Cn3nnc4ccccc43)n2C)c1	-5.9%
COc1cnc(-c2ccccn2)nc1Sc1cccc(Cl)c1	-11.4%
CCc1nccn1S(=O)(=O)c1cccc([N+](=O)[O-])c1	-0.4%
COc1ccc(OC)c2[nH]c(=O)c(CCNC(=O)COc3ccccc3)cc12	-7.5%
COc1ccc(-c2nc(-c3ccccc3)no2)c(OC)c1	-28.8%
COc1ccc(-c2cc(C(F)(F)F)nc(SCCC(=O)NCc3ccco3)n2)cc1	-11.8%
O=C(c1ccco1)N1CCC2(CC1)CN(c1cccc(-c3ccccc3)c1)C2	u
CCn1c(=O)[nH]c2ccccc21	-0.4%
CCCCn1c(SCC(=O)N2CCC(C)CC2)nc2ccsc2c1=O	-14.7%

Ordered by count of non-hydrogen atoms (highest first): part of the list above
SMILES	HPGD inh
O=C(NCc1ccco1)c1ccc2c(=O)n(-c3ccccc3)c(=O)n(Cc3cccc(F)c3)c2c1	-7.2%
Cn1c(=O)c2c(nc(N3CCOCC3)n2CC(=O)c2ccccc2)n(C)c1=O	-13.6%
COC(=O)c1[nH]c2cc(OC)ccc2c1NC(=O)CCN1CCSCC1	-11.9%

Screens as filed in PubChem BioAssay.
